Mtb growth – M. tuberculosis H37Rv growth inhibitors, H37Rv strain (AID 1626) | M. tuberculosis H37Rv growth inhibition; higher % means a stronger effect | inhibition, % at 10 µM; hits with a dose series show IC50 in µM | 0.95% of 220,000 active;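 active = confirmed in a dose series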;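 also: bacteria incubated seven days before Alamar blue readout; 0% = bacteria only wells and 100% = bacteria with antibiotic wells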
RecA intein inh – Mtb RecA intein splicing inhibitors, primary screen, biochemical, fluorescence, HTS; cell-free RecA intein splicing; inhibition, %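 (about 9 µM by stock and volumes)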; 0.75% of 290,000 active; in the data active = inhibition above about 30%;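 also: 0% = vehicle wells and 100% = reference inhibitor control wells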
Target sequence (P9WHJ3 whole entry, looked up): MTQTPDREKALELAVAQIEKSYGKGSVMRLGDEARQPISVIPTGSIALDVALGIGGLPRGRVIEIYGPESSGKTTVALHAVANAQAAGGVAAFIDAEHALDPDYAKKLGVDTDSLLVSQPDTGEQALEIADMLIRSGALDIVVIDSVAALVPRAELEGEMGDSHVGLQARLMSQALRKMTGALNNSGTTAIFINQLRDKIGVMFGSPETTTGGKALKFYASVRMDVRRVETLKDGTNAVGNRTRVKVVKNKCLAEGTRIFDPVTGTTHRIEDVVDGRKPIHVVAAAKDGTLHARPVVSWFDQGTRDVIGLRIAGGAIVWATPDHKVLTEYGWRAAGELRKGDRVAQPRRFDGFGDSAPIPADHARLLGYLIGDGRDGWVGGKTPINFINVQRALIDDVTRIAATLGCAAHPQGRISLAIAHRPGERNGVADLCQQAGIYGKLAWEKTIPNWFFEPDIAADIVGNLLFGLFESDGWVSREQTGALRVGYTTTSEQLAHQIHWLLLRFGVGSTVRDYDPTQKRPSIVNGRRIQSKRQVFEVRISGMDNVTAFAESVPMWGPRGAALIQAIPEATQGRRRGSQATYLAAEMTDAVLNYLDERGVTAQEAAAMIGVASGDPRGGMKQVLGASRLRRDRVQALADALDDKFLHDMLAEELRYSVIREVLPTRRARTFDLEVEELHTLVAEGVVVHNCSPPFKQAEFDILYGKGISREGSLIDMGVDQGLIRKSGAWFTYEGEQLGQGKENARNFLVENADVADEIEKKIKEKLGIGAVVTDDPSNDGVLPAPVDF
Arbovirus inh – antivirals against arbovirus infection, primary screen, cell-based, full library, 10K replicate subset; arbovirus infection cell-based antiviral screen; inhibition, % at 10 µM; 0.37% of 200,000 active;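 active = inhibition from about 30%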;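 also: bluetongue infection of BSR cells; cell survival read as ATP light after 72 h; 0% = infected wells without compound and 100% = uninfected wells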
YopH PTP inh – YopH tyrosine phosphatase inhibitors, primary screen, biochemical, fluorescence Ex485/Em525. YopH tyrosine phosphatase [Yersinia enterocolitica]. AID 898, 2007. 0.16% of 140,000 active. inhibition, %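 (about 10 µM by stock and volumes)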;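 active = inhibition of 50% or more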;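 also: controls were vehicle for no effect and minimum signal wells for full effect; inactives centre near -20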
Mtb bLac sens – beta-lactam sensitization of Mtb H37Rv, H37Rv. 0.27% of 330,000 active. AID 434955, 2010. M. tuberculosis H37Rv growth with meropenem, percent inhibition; hits of this screen are not shown here. inhibition, % at 25 µM;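 active = about 74% or more and at least 40 points above the plate without the antibiotic, then above 30% in a dose series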;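 also: growth measured after seven days incubation then overnight dye step; 0% = bacteria only wells and 100% = bacteria with antibiotic; twin plates without the antibiotic show which effects depend on it; some results filed as inactive read as strong as hits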
Arbovirus inh repeat – further read-out of Arbovirus inh, marked with its call; inhibition, %; measured here: 10K subset replicate screen; many hits read low in the repeat;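 first of two repeat runs on a subset; 0% = infected and 100% = uninfected wells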
* = called active by the depositor; x = no result given. The list is partial; count on the stated rates, not on these rows.

SMILES	Mtb growth	RecA intein inh	Arbovirus inh	YopH PTP inh	Mtb bLac sens	others
Cc1cc(NC(=O)c2c(-c3ccccc3Cl)noc2C)no1	-1.3%	0.4	4.5	-16.9	4.2
O=C(Nc1ccc(N2CCN(C(=O)c3cccs3)CC2)c(Cl)c1)c1cccnc1	-1.4%	3.5	-21.1	x	5.3
O=C(NCCc1ccc(Cl)cc1)Nc1ccc(Cl)cc1	2.5%	x	x	x	3.8
COc1ccc(OC)c(NC(=O)C23CC4CC(C2)CC(n2cnc(Br)n2)(C4)C3)c1	-11.8%	-4.3	9.3	2.8	x
Cc1ccc(C(=O)OCC(=O)N(CCc2ccccc2)Cc2ccccc2)cc1S(=O)(=O)N1CCOCC1	x	-1.1	x	x	-15.0
CCCc1[nH]nc2c1C(c1ccncc1)C(C#N)=C(N)O2 (configuration not stated)	-6.7%	32.0*	3.6	-27.3	-6.3
Cc1cnc(C(=O)OCC(=O)N(C)CC(=O)Nc2ccccc2Cl)cn1	x	-0.5	x	x	-10.4
CCCC(C(=O)NC1CCCC1)N(CC1CCCO1)C(=O)CNS(=O)(=O)c1ccc(F)cc1 (configuration not stated)	x	0.0	x	x	0.7
Cc1nnc(SCCn2c(Br)nc3c2c(=O)n(C)c(=O)n3C)s1	-13.9%	-7.6	16.2	-12.9	-9.8
COCCN1C(=O)C(=O)/C(=C(/O)c2cccc(OC)c2)C1c1ccco1 (configuration not stated)	5.4%	4.4	2.2	-44.3	-0.1
Cc1ccc(C2=NN(CC(=O)NCc3ccco3)C(=O)CC2)cc1	-5.4%	-1.5	-10.3	-22.8	-3.6
CCCNC(=O)CCc1cc(C(C)(C)C)c(O)c(C(C)(C)C)c1	3.2%	-0.4	1.6	-22.1	4.5
CCCCOC(=O)C1=C(C)NC(=O)NC1c1ccccc1 (configuration not stated)	x	4.1	x	x	-3.2
CCCNCC1COc2ccccc2O1 (configuration not stated)	-7.1%	-1.3	2.4	-13.0	-8.6
O=C(c1cc(-c2ccc(Cl)cc2)n(-c2cc(Cl)ccc2Cl)n1)N1CCOCC1	2.4%	-1.4	2.2	-30.8	14.0
Brc1cccc(CNc2nc3ccccc3n2CCN2CCCCC2)c1	15.1%	x	x	x	4.7
Clc1ccc(/C=N/c2c(-c3ccc(Cl)cc3)nc3n2CCS3)cc1	1.7%	2.0	-16.5	-34.0	-2.3
COc1ccc(N(CC(=O)Nc2nccs2)S(=O)(=O)c2c(C)nn(C)c2C)cc1	-6.5%	x	3.2	-2.7	0.8	Arbovirus inh repeat=0.5
CC(C(=O)Nc1ccc2c(c1)OCCO2)N(c1ccccc1)S(C)(=O)=O (configuration not stated)	1.9%	-0.1	x	x	4.6
CCCCCCC(=O)Nc1ccc(Br)cn1	24.6%	0.0	x	x	3.6

4 structures from above, sorted by molecular weight, low to high.
SMILES	Mtb growth	RecA intein inh	Arbovirus inh	YopH PTP inh	Mtb bLac sens	others
Clc1ccc(/C=N/c2c(-c3ccc(Cl)cc3)nc3n2CCS3)cc1	1.7%	2.0	-16.5	-34.0	-2.3
Brc1cccc(CNc2nc3ccccc3n2CCN2CCCCC2)c1	15.1%	x	x	x	4.7
O=C(Nc1ccc(N2CCN(C(=O)c3cccs3)CC2)c(Cl)c1)c1cccnc1	-1.4%	3.5	-21.1	x	5.3
COc1ccc(OC)c(NC(=O)C23CC4CC(C2)CC(n2cnc(Br)n2)(C4)C3)c1	-11.8%	-4.3	9.3	2.8	x

Next entries.
SMILES	Mtb growth	RecA intein inh	Arbovirus inh	YopH PTP inh	Mtb bLac sens	others
O=C(c1ccccc1)N1N=C(c2cccs2)CC1c1ccccc1O (configuration not stated)	x	6.0	x	x	9.4
O=C(CSc1nnc(-c2cccc(S(=O)(=O)N3CCCCC3)c2)o1)NCCC1=CCCCC1	4.6%	3.3	-9.6	-23.0	3.9
CCOC(=O)C(=CNc1ccc(S(N)(=O)=O)cc1)C(=O)OCC	-5.2%	0.0	x	x	2.0
C=CCn1c(SCC(=O)NCc2ccco2)nc2sc(C)c(C)c2c1=O	6.7%	-2.1	-5.2	-22.1	-5.9
c1ccc(-c2ccccc2OCCCCN2CCCCC2)cc1	10.5%	1.6	7.9	5.6	0.1
CCc1nnc(NS(=O)(=O)c2ccc(NC(=O)c3cccc4ccccc34)cc2)s1	x	2.2	0.7	x	2.8
CCc1ccc(NC(=S)N2CCCC2)cc1	x	-0.4	x	x	-5.5
O=C(Cc1ccccc1)OCn1nnc2ccccc2c1=O	63.3%	-8.4	-2.2	-25.3	70.1
Cc1ccc(N2CCN(/N=C/C3=C(N4CCOCC4)C(=C\c4ccccc4)/CC3)CC2)cc1	-7.4%	-1.2	x	x	0.1
Fc1ccc(NC(=S)NC2CC3CCCC(C2)N3Cc2cccs2)cc1 (configuration not stated)	4.1%	7.3	0.8	x	2.6
O=C(COC(=O)CCCNC(=O)c1ccc(Cl)cc1)NC1CC1	-0.7%	-2.6	1.2	-15.9	0.2
CN(C)CCCNC(=O)/C(=C\c1ccc(-c2cccc([N+](=O)[O-])c2)o1)NC(=O)c1ccccc1	-5.4%	-0.5	-21.2	x	-3.0
Nc1nc(SCC(=O)Nc2ncc(C(F)(F)F)cc2Cl)n[nH]1	3.9%	3.7	4.5	x	-6.8
COc1ccccc1C(=O)Nn1cnc2ccccc2c1=O	7.9%	-1.1	-0.4	-46.3	3.4
O=C(Nc1cccc(S(=O)(=O)NC2=NCCC2)c1)c1cc(Cl)ccc1[N+](=O)[O-]	x	-2.4	x	x	-2.9
COCCCNC(=O)c1nc2ccccc2c(=O)n1NC(=O)Nc1c(Cl)cccc1Cl	x	6.6	x	x	0.6
O=C1CC(c2c[nH]c3ccccc23)C(=O)N1c1ccccc1 (configuration not stated)	-6.5%	-1.3	1.7	-61.6	10.3
Cc1cccn2c(=O)nc(SCC(=O)NC3CCCCC3)nc12	x	-2.1	x	x	-5.2
c1ccc2oc(N3CCNCC3)nc2c1	-10.0%	0.0	-6.1	-10.6	-2.9
CN(CC(=O)NC1CC1)S(=O)(=O)c1cc(Cl)ccc1Cl	x	0.5	x	x	-4.7

Reprinted at random: 3 records from the list
SMILES	Mtb growth	RecA intein inh	Arbovirus inh	YopH PTP inh	Mtb bLac sens	others
CCCC(C(=O)NC1CCCC1)N(CC1CCCO1)C(=O)CNS(=O)(=O)c1ccc(F)cc1 (configuration not stated)	x	0.0	x	x	0.7
O=C(c1cc(-c2ccc(Cl)cc2)n(-c2cc(Cl)ccc2Cl)n1)N1CCOCC1	2.4%	-1.4	2.2	-30.8	14.0
CCCNC(=O)CCc1cc(C(C)(C)C)c(O)c(C(C)(C)C)c1	3.2%	-0.4	1.6	-22.1	4.5

Next records
SMILES	Mtb growth	RecA intein inh	Arbovirus inh	YopH PTP inh	Mtb bLac sens	others
CCOc1ccc(C(=O)CCC(=O)NC(C)C(=O)OC)cc1 (configuration not stated)	-1.4%	0.8	2.0	x	-1.4
CCN(CC)S(=O)(=O)c1cc([N+](=O)[O-])ccc1N=Nc1c(O)[nH]c2ccccc12	0.2%	-1.1	-5.5	-33.0	6.4
CC(C)(C)C1CCC(=NNS(=O)(=O)c2ccc(Br)cc2)CC1 (configuration not stated)	-3.9%	-2.3	-8.5	-15.2	-1.6
COc1ccc(C(=O)COC(=O)COc2cc(C)cc(C)c2)cc1	x	1.7	x	x	26.6
CC(C)NC(=O)COC(=O)c1cc(Br)ccc1Cl	4.0%	-0.2	4.1	-39.5	56.2
CCC1(C)Cc2c(sc3nc(SC)[nH]c(=S)c23)CO1 (configuration not stated)	x	-0.9	x	x	14.3
Cc1ccccc1OCC(=O)Nc1ccc2c(c1)COC2=O	-2.6%	6.2	-0.8	-49.0	2.2
CCOC(=O)c1ccc(N2C(=O)CC(N(Cc3ccc4c(c3)OCO4)C(=O)Nc3ccccc3)C2=O)cc1 (configuration not stated)	-2.4%	3.3	-0.8	-8.7	-5.4
CC12CCC(C(=O)NCc3ccccc3Cl)(OC1=O)C2(C)C (configuration not stated)	2.3%	-2.5	5.5	x	-9.5
CCN(C(=O)CSc1nnnn1-c1cc(C)ccc1OC)C1CCS(=O)(=O)C1 (configuration not stated)	-2.5%	0.9	3.3	-39.9	-14.0	Arbovirus inh repeat=-1.1
COCCNC(=O)CN1C(=O)/C(=C/c2ccccc2)Oc2ccc(C(C)(C)C)cc21	x	-18.5	x	x	-6.5
Cc1ccc(CNC(=O)CCCc2cn(C)c3ccccc23)cc1	x	9.9	x	x	6.5
O=C(COc1ccc(Cl)cc1)Nc1ccc(Cc2ccncc2)cc1	5.95µM*	3.3	11.9	-17.0	95.7
Cc1cc(C)c(C2C3=C(Nc4c2c(C)nn4-c2ccccn2)c2ccccc2C3=O)c(C)c1 (configuration not stated)	5.63µM*	4.0	-23.8	-0.1	x
CC(C)n1cc(C(=O)N(CC(=O)NC2CCCC2)Cc2ccccc2)cn1	-6.5%	0.6	7.8	-2.8	-7.0
CN(C)/C=C1\SC(=S)N(c2ccc(F)cc2)C1=O	13.0%	1.6	x	x	-9.7
COc1ccc(O)c(C(=O)c2cnc3onc(C)c3c2)c1	-2.7%	-1.7	6.8	-20.6	2.9
Cc1nnc(SC(C(=O)Nc2ccc(Cl)c([N+](=O)[O-])c2)c2ccccc2)[nH]c1=O (configuration not stated)	-3.8%	5.4	8.5	x	-9.7
O=C1C2C3C=CC([C@@H]2C(=O)N1Cc1cccnc1)C31CC1 (some centres not stated)	-7.5%	0.4	5.2	-17.4	1.1
O=C(Nc1cccc(Cl)c1)OCCOc1ccccc1	x	1.5	x	x	-3.7
CC1=C(C#N)CCC(=O)N1Cc1c(F)cccc1Cl	-1.1%	x	-5.0	x	-12.7
CC(=O)N1CCN(S(=O)(=O)c2cccc(C(=O)NCCC3=CCCCC3)c2)CC1	x	1.1	x	x	-6.0
CCOC(=O)N1CCN(S(=O)(=O)c2ccc([N+](=O)[O-])cc2)CC1	4.2%	-0.8	21.9	x	-4.9
CN(C)c1oc(-c2ccccc2Cl)nc1P(=O)(c1ccccc1)c1ccccc1	1.9%	x	-34.2	-13.9	4.0
N#Cc1c(-c2ccccc2)c(-c2ccccc2)n(Cc2ccco2)c1NC(=O)c1cccs1	-2.9%	2.5	6.2	-32.2	-6.8
N#Cc1cc(-c2ccc(Cl)cc2)cn(Cc2c(Cl)cccc2Cl)c1=O	2.9%	-2.8	-16.2	-17.8	-8.9
CC(CCc1ccco1)NC(=O)c1cc2c(-c3ccccc3F)nn(C)c2s1 (configuration not stated)	21.7%	1.0	0.2	-52.5	1.2	Arbovirus inh repeat=-8.7
Cc1cccc(NC(=S)N(CCN(C)C)Cc2cccs2)c1	-0.9%	-3.6	11.3	x	1.4
CCOC(=O)c1c(N)sc(C(O)(C(F)(F)F)C(F)(F)F)c1-c1ccccc1	-8.9%	2.5	-30.8	-21.4	2.4
CCC(NC(=O)Cc1cccs1)c1ccccc1 (configuration not stated)	x	0.7	x	x	-6.5
Clc1ccc(OCCCCCN2CCOCC2)cc1	x	3.5	x	x	-3.3
O=C(CN1C(=O)C2CCCCC2C1=O)N1CCN(c2ncccn2)CC1 (configuration not stated)	-6.8%	0.6	x	x	-7.7
COc1ccc(CNCCSc2nnnn2C)c(OC)c1OC	-4.0%	-1.4	-2.4	x	1.6
CC1(C)CC(CC(=O)O)(c2ccc(F)cc2)CCO1 (configuration not stated)	-3.8%	1.6	-5.4	-45.1	-1.8
CN=C1NN=C(c2cc(C)n(-c3c(C)n(C)n(-c4ccccc4)c3=O)c2C)CS1	-2.9%	-1.3	6.7	-26.2	-9.4
Cc1nc(C)c(CCNC(=O)c2ccc(C(F)(F)F)cc2)s1	4.3%	-0.1	-6.1	-29.2	-3.3
Clc1cccc(Cl)c1CSc1nnc(CN2CCOCC2)n1-c1ccccc1	-7.4%	-4.5	6.8	-0.8	-11.1
Cn1c(=O)c2c(nc(NCc3cccnc3)n2Cc2cccc(C(F)(F)F)c2)n(C)c1=O	1.2%	6.4	4.4	-8.4	3.7
CCCC(=O)NCc1nc2ccccc2n1C	-3.7%	-1.4	0.4	10.5	0.8
O=[N+]([O-])c1cccc2c(Cl)ccnc12	-5.3%	29.9	-13.7	x	-0.9
COc1cccc(OC)c1OCc1cc(C2C3CCCC=C3C(C#N)=C(N)C2(C#N)C#N)c(C)cc1C (configuration not stated)	-9.4%	27.2	4.1	-16.8	8.6
COc1ccc(-c2sc3ccccc3c2C#CCCO)cc1	x	12.0	x	x	94.7
COc1cc(C2C3C(=O)N(c4ccccc4)C(=O)C3ON2c2ccccc2)ccc1O (configuration not stated)	-2.4%	1.2	-2.0	-12.1	-4.5
CN1CCC(N(C)c2nc(-c3ccccc3)nc3ccccc23)CC1	1.1%	0.7	-35.5	8.7	-19.6
COc1ccccc1NS(=O)(=O)c1ccc(Cl)c(NC(=S)NC(=O)C2CCCC2)c1	-9.4%	10.9	-9.4	-27.4	0.4

Screening results from PubChem BioAssay.
